High-throughput results as filed in PubChem.
Beta cell apopt: inhibitors of cytokine-induced beta cell apoptosis, primary screen, luminescence | INS-1E cytokine-induced death, ATP luminescence, 48 h; percent of positive-control rescue, neutral wells zero | protection from apoptosis, % (no concentration beside the values) | 300,000 compounds, 0.8% hits | AID 435005, 2010;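 active means all replicates at 75% or more, or half of them and the mean; inconclusive means half reach 75% but not the mean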;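 further: 0% = cytokine-treated negative control wells and 100% = positive control rescue; higher means more ATP so stronger rescue from cytokine killing; wells of about 40 µL received 100 nL stock; the first replicate is given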
MLL AF4-AF9 inh: inhibitors of AF4 peptide binding to AF9, primary screen, biochemical, AlphaScreen, biotin-AF4 peptide, FLAG-AF9, single point | Protein AF-9 (Homo sapiens), P42568 | inhibition, % at 10 µM | 350,000 compounds, 0.47% hits | AID 651704, 2012;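 active means every replicate reaching a set inhibition limit, whatever the replicate mean, cut at about 25% in these data; inconclusive means mean inhibition reaches that limit but some replicates miss it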;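 further: 0% = plate neutral control median and 100% = total signal loss; the record names both 10 and 1 µM as test concentration; the first replicate is given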
Target sequence (P42568 whole entry, looked up): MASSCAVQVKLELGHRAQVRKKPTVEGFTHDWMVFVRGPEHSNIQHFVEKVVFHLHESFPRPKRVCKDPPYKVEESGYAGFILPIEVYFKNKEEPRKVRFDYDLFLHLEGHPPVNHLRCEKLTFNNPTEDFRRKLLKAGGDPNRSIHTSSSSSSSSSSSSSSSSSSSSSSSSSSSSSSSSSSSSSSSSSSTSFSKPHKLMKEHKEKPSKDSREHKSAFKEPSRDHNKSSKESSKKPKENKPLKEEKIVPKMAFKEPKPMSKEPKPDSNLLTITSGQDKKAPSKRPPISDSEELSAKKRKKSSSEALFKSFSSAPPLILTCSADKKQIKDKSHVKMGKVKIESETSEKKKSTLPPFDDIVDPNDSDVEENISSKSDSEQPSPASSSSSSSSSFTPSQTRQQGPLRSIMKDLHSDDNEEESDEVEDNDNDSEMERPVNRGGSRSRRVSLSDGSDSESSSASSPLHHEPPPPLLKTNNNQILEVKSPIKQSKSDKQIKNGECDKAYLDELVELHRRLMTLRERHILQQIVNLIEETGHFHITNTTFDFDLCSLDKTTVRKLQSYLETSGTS
A1 inh: caspase 3/7 activation in MEF A1-2A-BIM cells, primary screen, A1 inhibitor project, cell-based, luminescence, HTS. caspase activation, % (test concentration not listed). Caspase-Glo 3/7 luminescence, 3 h; percent of clofoctol response, vehicle zero. 330,000 compounds, 0.066% hits. AID 2462, 2010;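 active means over half of replicate activation scores above 10%, or exactly half above 10 with the replicate mean above 10; inconclusive means replicate mean below 10 yet half the replicates above 10; inactive means over half of replicates below 10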;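 further: wells of about 30 µL received 50 nL stock; many hits fall short of the cut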
T cruzi repl: inhibitors of intracellular T. cruzi growth, primary screen, luminescence, NIH3T3 host cells | T. cruzi beta-gal in NIH3T3, 90 h | AID 1885, 2009 | 300,000 compounds, 1.4% hits | inhibition, % (concentration not given with the values);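 active means mean inhibition across valid replicates above about 55%, limit read from the data; inconclusive means mean below that limit but half or more replicates reach it; inactive means mean below it, under half of replicates reach it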;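 further: signal also drops with host cell toxicity which is not excluded here; 0% = plate median of DMSO wells and 100% = zero luminescence signal; higher percent means less beta-gal luminescence so fewer parasites; stock transfer was 50 nL into about 50 µL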
Ecoli rRNA inh: reduced GFP signal of wild-type E. coli, primary screen, bacterial rRNA inhibitor project, GFP/RFP fluorescence, OD600, single point; GFP signal change (wild-type ribosome), % (no concentration beside the values); E. coli WT GFP vs humanized-ribosome RFP mutants, 24 h; active compounds read low; DMSO median 0, no signal -100; 350,000 compounds, 1.6% hits; AID 720706, 2013;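 active means significant combined selectivity score with lowered wild-type GFP, culture density cut under 30%, mutant RFP and density less affected; inactive means any of these conditions unmet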; further: one replicate is shown; some compounds called inactive have numbers as strong as hits
UCH37 inh: inhibitors of human UCH37 deubiquitinase, primary screen, biochemical, Ub-AMC cleavage, fluorescence. Ubiquitin carboxyl-terminal hydrolase isozyme L5 (Homo sapiens), Q9Y5K5. purified proteasome/UCH37. inhibition, % (test concentration not listed). 330,000 compounds, 0.33% hits;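 active means mean of two replicates above 20%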;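 further: 0% = compound-free wells with enzyme and 100% = wells lacking proteasome; stock transfer was 100 nL into about 20 µL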
Target sequence (Q9Y5K5 whole entry, looked up): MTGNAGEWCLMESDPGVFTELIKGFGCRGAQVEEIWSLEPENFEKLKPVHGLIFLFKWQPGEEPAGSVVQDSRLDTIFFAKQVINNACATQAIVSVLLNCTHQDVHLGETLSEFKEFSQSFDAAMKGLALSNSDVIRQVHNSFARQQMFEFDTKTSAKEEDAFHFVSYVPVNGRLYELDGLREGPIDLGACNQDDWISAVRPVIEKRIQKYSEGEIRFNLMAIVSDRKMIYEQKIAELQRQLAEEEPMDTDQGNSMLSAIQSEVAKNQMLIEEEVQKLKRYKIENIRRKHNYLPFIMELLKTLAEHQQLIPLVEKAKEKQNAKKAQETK
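Material: human UCH37 enzyme supplied as purified proteasome complex / Amount: 0.15 nM proteasome as dispensed / Buffer or medium: pH 7.4 Tris-HCl (50 mM) with ovalbumin, ATP-MgCl2, DTT / Times: preincubation 30 min, reaction 25 min, room temperature / Technique: AMC fluorescence from Ub-AMC cleavage, excitation 355 nm, emission 460 nm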
FGF22 binding: binders of human FGF22 protein, primary screen, FGF22 synaptogenesis inhibitor project, biophysical, thermal shift, single point; 340,000 compounds, 1.5% hits; recombinant FGF22 thermal shift, SYPRO orange fluorescence; percent of sucrose octasulfate shift, DMSO zero; calls only at 9.99 µM;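 active means melting point raised past a set limit in the mean and every replicate; inconclusive means no clear call; three in four hits are not shown here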
Target sequence (Q9HCT0 whole entry, looked up): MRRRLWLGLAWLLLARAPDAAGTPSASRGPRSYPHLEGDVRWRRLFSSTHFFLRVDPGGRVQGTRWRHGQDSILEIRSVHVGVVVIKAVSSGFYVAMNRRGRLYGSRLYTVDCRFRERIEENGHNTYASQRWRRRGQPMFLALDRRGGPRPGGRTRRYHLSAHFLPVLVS
E coli growth: E. coli growth inhibition, primary screen, OD600; 330,000 compounds, 0.21% hits; Escherichia coli growth, 23 h; active compounds read low; OD600 absorbance (test concentration not listed); AID 1053175, 2014;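 active means OD600 absorbance below the run mean of sample wells minus 3.6 SD, in any replicate, cut at about 0.56 in these data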;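 further: stock transfer was 300 nL into about 60 µL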
Ecoli rRNA inh OD600: further read-out of Ecoli rRNA inh, marked with its call; OD600 change, %; measured here: OD600 growth;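 optical density of the mix in the first replicate; 0 = DMSO median and -100 = no signal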
Ecoli rRNA inh RFP: second read-out of Ecoli rRNA inh, no call of its own (marks repeat the call); RFP signal change, %; measured here: RFP humanized mutant strains;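 first replicate; 0 = DMSO median and -100 = no signal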
Numbers without * were called inactive; i = inactive; ? = inconclusive; nt = not tested or not shown; + = active, no number.

SMILES	Beta cell apopt	MLL AF4-AF9 inh	A1 inh	T cruzi repl	Ecoli rRNA inh	Ecoli rRNA inh OD600	Ecoli rRNA inh RFP	UCH37 inh	FGF22 binding	E coli growth
O=C(Nc1ccc(Br)cc1F)C1CCCN(S(=O)(=O)c2cnc[nH]2)C1 (centres undefined)	nt	-3.1	-0.9	-12	4	2	-0.3	1.7	+	0.75
COC(=O)c1cc(C(=O)c2ccc(Cl)cc2)n2c(=O)/c(=C\N(C)C)sc12	4	-5.0	0.3	24	9	1	2.0	nt	i	nt
O=C(c1ccccc1)N1CCCC(C(=O)N2CCCCC2)C1 (centres undefined)	-5	0.7	-0.8	-6	5	3	-1.8	2.0	i	0.7
C=CC[C@@H](CC(=O)NCCO)C(=O)N[C@@H](COC(=O)[C@@H](CC=C)Cc1ccc(F)cc1)Cc1ccccc1	nt	-38	nt	nt	-7	-12	3.5	2.5	i	nt
Cc1ccc(NC(=O)CN2C(=O)C3C4C=CC(C4)C3C2=O)cc1 (centres undefined)	1	0.2	-0.9	-3	14	10	5.2	-0.5	i	0.68
O=C(/C=C/c1ccccc1)NCCN1CCOCC1	0	nt	0.0	-28	nt	nt	nt	1.2	nt	0.65
CCOC(=O)c1nn(-c2ccccc2C)c2nc(-c3ccc(Cl)cc3)c(C#N)c(=O)n12	17	nt	-0.6	3	nt	nt	nt	-1.6	nt	0.66
CCC1=NN(C(=O)c2ccc(Br)cc2)C(O)(c2ccc(C)cc2)C1 (centres undefined)	-8	3.7	-0.2	-11	-30*	-24*	-8.6*	1.1	i	0.7
O=C(Cc1ccc(Br)cc1)NCCN1CCOCC1	-5	-1.1	-0.4	1	13	18	1.1	2.0	i	0.65
CCOC(=O)COc1cccc2c(=O)n(CC(=O)NCc3ccc(F)cc3)ccc12	4	-42	1.9	37	14	12	-1.4	-6.1	i	0.62
COC(=O)c1cc(S(=O)(=O)NCC2CCN(Cc3cc(C)ccc3C)CC2)c[nH]1	4	0.6	1.9	0	10	9	1.5	1.1	i	0.65
CS(=O)(=O)N(Cc1ccccc1)c1ccccc1C(=O)O	-2	nt	0.1	-4	nt	nt	nt	2.7	nt	0.71
Cc1ccc(CN2C(=O)C(=O)c3cc(C)ccc32)cc1	2	-2.7	?	nt	13	-7	38	3.9	i	0.69
CCOc1ccc(NC(=O)CN(C)C(=O)CCCOc2ccc(Br)cc2)cc1OCC	6	-5.0	-0.6	37	0	3	0.1	0.9	i	0.68
Cc1csc(NC(=O)CSc2nc3ccccc3c3c2CCCC3)n1	-4	-3.1	-0.9	-3	2	-1	0.9	2.9	i	0.74
CCC(=O)n1nc(-c2ccc(OC)cc2)nc1NCc1cccs1	nt	-4.1	nt	6	24	8	-1.4	1.6	i	0.7
Cc1cccc(C)c1NC(=O)CS(=O)CC(=O)Nc1ccc(N2CCOCC2)cc1 (centres undefined)	nt	0.0	-0.7	4	4	6	-2.9	1.6	i	0.65
O=C(CCc1nnc(Cc2ccc(-c3ccccc3)cc2)o1)NCC1CC1	-5	0.4	0.8	0	6	1	0.3	-2.5	i	0.68
CC(C(=O)Nc1ccncc1)(c1ccccc1)c1ccccc1	0	-0.1	1.8	7	-8	1	-1.3	0.9	i	0.74
CCc1ccc(Nc2nnc(SCC(=O)NC(=O)CN3CCCC3=O)s2)cc1	-4	-2.5	-0.6	nt	0	5	-1.2	nt	i	nt
O=C(COC(=O)C1CC2CCCC(C1)C2=O)Nc1ccc(F)c(Cl)c1 (centres undefined)	-2	2.8	0.2	nt	-15	-15	0.8	0.8	i	0.66
CC(=O)Nc1cccc(O)c1	-2	nt	-0.2	nt	7	7	-0.9	nt	i	nt
CCOC(=O)c1ccc(NC(=O)NCCc2ccccc2OC)cc1	-7	-0.6	-0.5	6	-38	-55	-4.1	-0.8	i	0.67
Cc1c(-c2ccccc2)nc2ccccc2c1C(=O)NCc1cccs1	5	nt	0.8	-13	nt	nt	nt	2.1	nt	0.71
O=C(Nc1ccc2c(c1)OCO2)C1CCN(S(=O)(=O)Cc2ccccc2)CC1	4	nt	-0.2	9	nt	nt	nt	5.4	nt	0.71
(more compounds)
SMILES	Beta cell apopt	MLL AF4-AF9 inh	A1 inh	T cruzi repl	Ecoli rRNA inh	Ecoli rRNA inh OD600	Ecoli rRNA inh RFP	UCH37 inh	FGF22 binding	E coli growth
O=C(CSc1nnc2ccccn12)NC(=O)c1ccccc1	1	1.6	1.0	nt	6	10	-1.1	-7.2	i	0.7
O=C(Nc1ccccc1C1CC1)c1cccs1	-4	nt	-0.5	-14	nt	nt	nt	4.3	nt	0.67
O=C(CNC(=O)c1cccs1)OCC(=O)c1ccc(Cl)cc1	-9	-0.6	0.6	-2	6	18	3.9	2.0	i	0.67
Cc1cccc(N2CCN(C(=O)C34CC5CC(CC(C5)C3)C4)CC2)c1C	4	nt	-0.4	45	nt	nt	nt	2.9	nt	0.72
CC(C)(CNCC(O)c1ccccc1)N1CCOCC1 (centres undefined)	-1	nt	0.8	-2	nt	nt	nt	3.1	nt	0.75
COc1ccc(OCC(=O)Nc2ccc3c(c2)C(=O)NC3=O)cc1	-3	-0.6	1.7	-18	6	10	1.1	-5.4	i	0.68
CCCCOc1ccc(-c2nc(/C=N/c3nccs3)c(O)o2)cc1	nt	0.6	0.4	11	-5	9	4.9	nt	i	nt
Cc1cccc(N2CCN(C(=O)c3cccc(S(=O)(=O)N4CCCCC4)c3)CC2)c1C	-12	1.5	-0.9	nt	13	1	12	2.1	i	0.66
CCc1ccc(CN(C(=O)c2oc3ccccc3c2C)C2CCS(=O)(=O)C2)cc1 (centres undefined)	11	-1.5	nt	8	-4	1	14	4.9	i	0.72
COc1cc(C(c2sc3ncnn3c2O)N2CCN(c3ccccc3F)CC2)cc(OC)c1OC (centres undefined)	0	-1.4	0.3	17	-3	-8	2.2	2.2	i	0.73
Fc1ccc(CNC(=S)Nc2ccccc2F)cc1	nt	0.8	0.9	-27	9	10	0.6	2.7	i	0.64
COC(=O)CC(c1ccc(C#N)cc1)n1c(C)ccc1C (centres undefined)	-31	3.4	-0.5	-7	2	-9	-0.2	4.0	i	0.69
CCOC(=O)c1[nH]c2ccccc2c1NC(=O)c1cc(OC)c(OC)c(OC)c1	nt	nt	-1.4	9	nt	nt	nt	-0.1	nt	0.72
Cc1cccc(NC(=O)C2CCCN(C(=O)Nc3ccc(F)cc3)C2)c1C (centres undefined)	2	-1.5	0.4	1	0	4	-4.3	0.3	i	0.6
CCOC(=O)N1CCN(C(=O)COc2ccc(S(=O)(=O)NCc3ccccc3)cc2)CC1	nt	nt	0.0	-2	nt	nt	nt	1.3	nt	0.68
CCOC(=O)c1cn(CC)c2cc(N3CCCCC3)c(F)cc2c1=O	-1	nt	-0.6	-1	-50	-75	-24	-9.9	nt	0.66
O=S(=O)(c1ccc(F)c(F)c1)N1CCN(S(=O)(=O)c2cccs2)CC1	-3	-1.3	1.2	3	3	14	4.7	4.9	i	0.7
Cc1nc(NCCN2CCOCC2)c2nnn(Cc3c(F)cccc3Cl)c2n1	-3	nt	-0.5	-21	nt	nt	nt	4.2	nt	0.69
CC(C)OC(=O)CSc1nnc(C2CCCCC2)n1N	-11	-3.2	-0.6	6	5	-12	-1.1	1.6	i	0.68
CSc1cccc(-n2cc(-c3ccc4c(c3)OCO4)[nH]c2=O)c1	nt	nt	-1.1	-42	nt	nt	nt	1.3	nt	0.67
Cc1ccc(C(=O)N2CCCC(c3nc4c(nnn4Cc4ccccc4)c(=O)[nH]3)C2)cc1 (centres undefined)	0	nt	-0.4	-4	nt	nt	nt	4.2	nt	0.71
CCOc1ccc(-c2nc(CSCC(=O)NCCN3CCOCC3)c(C)o2)cc1	-3	nt	-0.2	3	nt	nt	nt	-1.0	nt	0.7
CCSc1nc(N)nc2c1ncn2C1OC(CO)C(O)C1O (centres undefined)	nt	2.3	nt	nt	4	4	1.7	-1.4	i	0.61
C=CCN1C(=O)CS/C1=C(\C#N)S(=O)(=O)c1ccc(C)cc1	-1	nt	0.6	-3	nt	nt	nt	0.9	nt	0.67
NC(=O)COC(=O)c1sc2cc(F)ccc2c1Cl	-6	2.3	0.5	-5	-17	-21	2.5	-11	i	0.69

FGF22 binding, entries above that show a hit
Compound,MLL AF4-AF9 inh,A1 inh,Ecoli rRNA inh,Ecoli rRNA inh OD600,Ecoli rRNA inh RFP,UCH37 inh,FGF22 binding
O=C(Nc1ccc(Br)cc1F)C1CCCN(S(=O)(=O)c2cnc[nH]2)C1 (centres undefined),-3.1,-0.9,4,2,-0.3,1.7,+

Next entries follow.
SMILES	Beta cell apopt	MLL AF4-AF9 inh	A1 inh	T cruzi repl	Ecoli rRNA inh	Ecoli rRNA inh OD600	Ecoli rRNA inh RFP	UCH37 inh	FGF22 binding	E coli growth
CN(C)S(=O)(=O)c1ccc(C(=O)Nc2ccc(Cl)cc2)cc1	nt	-1.3	-0.2	-4	-15	-4	-6.7	3.5	i	0.65
CC(C)(C)N(CC#CCC1(O)c2ccccc2-c2ccccc21)CCO	-9	-2.5	0.0	-3	16	14	0.0	4.7	i	0.7
Cc1cccc(C)c1NC(=O)COC(=O)c1cccc2c1C(=O)c1ccccc1C2=O	1	-7.1	-0.2	10	nt	nt	nt	-1.7	i	0.72
Cc1cc(=O)c(C(=O)O)nn1-c1ccccc1Cl	-3	-1.2	0.7	4	15	8	-0.6	-0.1	i	0.69
O=c1c2c(-c3cccs3)csc2ncn1-c1ccc(Br)cc1	-1	nt	0.5	18	nt	nt	nt	-0.9	nt	0.72
CCN(CC)S(=O)(=O)c1cc(NC(=O)c2n[nH]c(=O)c3ccccc23)ccc1C	3	0.0	0.0	4	4	-6	0.2	1.1	i	0.69
CC1(C)OC(=O)C(=NNc2ccccc2C(=O)O)C(=O)O1	-8	-6.5	-1.0	-1	3	1	2.0	12	i	0.68
CCC(=NCCc1c(C)[nH]c2ccc(OC(F)(F)F)cc12)C1=C(O)CC(c2ccccc2)CC1=O (centres undefined)	41	7.9	0.9	50	8	3	43	5.8	i	0.72
O=C1C(Nc2ccc(O)cc2)=C/C(=N/S(=O)(=O)c2cccs2)c2ccccc21	nt	63*	nt	58*	-38	-57	-6.0	nt	nt	nt

An excerpt, so the mix of outcomes need not match the whole.
